Assay outcomes as filed in PubChem.
RecA splice inh: inhibitors of M. tuberculosis RecA intein splicing; inhibition, %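 (about 9 µM by stock and volumes)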; P9WHJ3; cell-free RecA intein splicing, fluorescence; AID 2221; 0.75% of 290,000 active; in the data active means inhibition above about 30%; inconclusive means no clear call, values can overlap the other calls;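 further: 0% = vehicle wells and 100% = reference inhibitor control wells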
Target sequence (P9WHJ3 whole entry, looked up, canonical isoform): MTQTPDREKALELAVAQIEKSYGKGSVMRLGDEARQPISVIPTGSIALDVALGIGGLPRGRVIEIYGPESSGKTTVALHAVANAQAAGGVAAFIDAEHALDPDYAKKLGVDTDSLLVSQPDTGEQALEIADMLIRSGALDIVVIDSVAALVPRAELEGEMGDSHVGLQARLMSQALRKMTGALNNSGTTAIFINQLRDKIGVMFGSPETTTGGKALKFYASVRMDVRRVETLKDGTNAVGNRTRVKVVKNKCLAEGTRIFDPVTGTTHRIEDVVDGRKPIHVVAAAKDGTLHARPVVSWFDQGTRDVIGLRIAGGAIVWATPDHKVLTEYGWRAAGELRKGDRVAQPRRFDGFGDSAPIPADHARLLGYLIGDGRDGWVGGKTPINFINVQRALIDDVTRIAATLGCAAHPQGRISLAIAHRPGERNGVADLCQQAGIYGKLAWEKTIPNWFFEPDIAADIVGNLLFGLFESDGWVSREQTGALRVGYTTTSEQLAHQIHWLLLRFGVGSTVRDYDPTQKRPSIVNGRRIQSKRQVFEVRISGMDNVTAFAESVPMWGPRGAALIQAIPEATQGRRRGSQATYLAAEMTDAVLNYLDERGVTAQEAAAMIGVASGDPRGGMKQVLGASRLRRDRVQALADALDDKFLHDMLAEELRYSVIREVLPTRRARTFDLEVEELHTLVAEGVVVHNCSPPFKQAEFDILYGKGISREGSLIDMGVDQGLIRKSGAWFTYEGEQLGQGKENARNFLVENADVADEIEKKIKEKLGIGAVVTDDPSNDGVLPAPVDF
Mtb H37Rv: M. tuberculosis H37Rv growth inhibitors, H37Rv strain (AID 1626). inhibition, % at 10 µM; hits with a dose series show IC50 in µM. 0.95% of 220,000 active. M. tuberculosis H37Rv growth inhibition; higher % means a stronger effect;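 active means confirmed in a dose series; inconclusive means inhibition above 80% but not taken into the dose series; inactive means below 80% or under 30% at every dose of the series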;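 further: bacteria incubated seven days before Alamar blue readout; 0% = bacteria only wells and 100% = bacteria with antibiotic wells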
YopH PTP inh: blocks Yersinia enterocolitica YopH tyrosine phosphatase | fluorescence Ex485/Em525 | inhibition, %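 (about 10 µM by stock and volumes)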 | 0.16% of 140,000 active;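 active means inhibition of 50% or more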;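 further: controls were vehicle for no effect and minimum signal wells for full effect; inactives centre near -20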
Arbovirus anti: blocks arbovirus infection | inhibition, % at 10 µM | 0.37% of 200,000 active | arbovirus infection cell-based antiviral screen;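 active means inhibition from about 30%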;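 further: bluetongue infection of BSR cells; cell survival read as ATP light after 72 h; 0% = infected wells without compound and 100% = uninfected wells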
Mtb betalactam: beta-lactam sensitization of Mtb H37Rv | M. tuberculosis H37Rv growth with meropenem, percent inhibition; hits of this screen are not shown here | inhibition, % at 25 µM | 0.27% of 330,000 active | AID 434955;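 active means about 74% or more and at least 40 points above the plate without the antibiotic, then above 30% in a dose series; inconclusive means first-round hits that could not be retested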;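 further: growth measured after seven days incubation then overnight dye step; 0% = bacteria only wells and 100% = bacteria with antibiotic; twin plates without the antibiotic show which effects depend on it; some results filed as inactive read as strong as hits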
Arbovirus anti repeat: further read-out of Arbovirus anti, marked with its call; inhibition, %; measured here: 10K subset replicate screen; many hits read low in the repeat;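 first of two repeat runs on a subset; 0% = infected and 100% = uninfected wells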
* hit, by the source's call; ? = inconclusive; . = not tested or not shown; & = joins results of further samples. This is a subset; rates above refer to the full screens.

SMILES	RecA splice inh	Mtb H37Rv	YopH PTP inh	Arbovirus anti	Mtb betalactam	others
O=S(=O)(NC(=NCc1ccccc1)c1ccccc1)c1ccc(Br)cc1	6.6	.	.	.	?
COc1ccc(N(CC(=O)N2CCN(c3ccccc3)CC2)S(=O)(=O)c2c(C)noc2C)cc1	2.7	5%	-47	-2	-1	Arbovirus anti repeat=3
CC(C)CNC(=S)N(CCN(C)C)Cc1cc2cc3c(cc2[nH]c1=O)OCCO3	-3.1	.	.	.	2
O=C(Nc1ccccc1Cl)c1cc(S(=O)(=O)N2CCCCC2)ccc1N1CCOCC1	7.4	-5%	0	-21	-9
CC(NC(=O)c1ccc2c(c1)S(=O)(=O)N=C1CCCCCN12)c1ccc(S(N)(=O)=O)cc1 (stereo not given)	-2.5	.	.	.	3
CN(CCCS(=O)(=O)[O-])c1ccc(/C=C/c2ccc3ccccc3[n+]2C)cc1	1.1	.	.	.	5
Cc1cc(C)n2c(SCC(=O)NC3CCCCC3)nnc2n1	1.5	9%	.	2	6
Cc1nc2ccccc2c(=O)n1NC(=O)c1ccc(Cl)c(Cl)c1	-1.8	.	.	.	1
COc1cccc(C(=O)N2CCN(Cc3ccc4c(c3)OCO4)CC2)c1OC	0.6	-8%	20	-5	-9
COC(=O)CCC(=O)COc1ccc(OC)cc1C#N	1.3	-1%	-18	6	6
N=c1c2c(n(Cc3ccc(F)cc3)c3c1CCC3)CCCC2	1.1	0%	.	-5	-4
C=CCN(C(=O)c1ccc(Cl)cc1)c1ccccc1C(=O)NCC(=O)O	-1.9	-9%	.	.	-6
Cc1cc(C)c(S(=O)(=O)N2CCOC2CNC(=O)C(=O)NCc2ccncc2)c(C)c1 (stereo not given)	-2.0	.	.	.	-2
CC(C)CCNC(=O)Cn1c(=O)oc2cc(S(=O)(=O)N3CC(C)CC(C)C3)ccc21 (stereo not given)	-0.2	6%	-35	-12	-8
COc1ccccc1NC(=O)CN1CCN(CC(=O)Nc2ccc(F)cc2)CC1	.	0%	-28	-1	-4
COc1ccc(/C=C2\Oc3cc(OC(=O)N4CCOCC4)ccc3C2=O)c(OC)c1	-6.9	-11%	.	.	2
CSCCC(=O)N(C)CC1CCCN(CCc2cccc(C(F)(F)F)c2)C1 (stereo not given)	-2.8	.	.	.	1
CN(C)CCCNC(=O)c1ccc2[nH]c3ccccc3c2c1	-0.8	-3%	-23	-17	0
O=C(c1ccccc1)C1Oc2ccccc2C2CC(c3cccs3)=NN12 (stereo not given)	-4.8	-5%	.	-27	-1
CC(OC(=O)CN1C(=O)C2CCCCC2C1=O)C(=O)Nc1ncc(Cl)cc1Cl (stereo not given)	-2.8	-10%	-15	-2	-5
CCOc1ccc(NC(=O)CCC(=O)O)cc1	.	-15%	-7	-1	4
CCOC(=O)N1CCN(c2ncnc3scc(-c4ccc(Cl)cc4)c23)CC1	12	.	.	.	6
CCCCn1c(N)c(N(CC)C(=O)c2ccccc2F)c(=O)[nH]c1=O	-1.4	.	.	.	-10
O=C(NCCCN1CCCC1=O)c1ccc2c(=O)n(Cc3ccco3)c(=S)[nH]c2c1	0.0	0%	-21	-4	11
CC(C)(C)C1CCc2c(sc3nc(SCC(N)=O)nc(N)c23)C1 (stereo not given)	2.8	25µM*	2	-38	99

Four compounds picked at random from the list so far:
SMILES	RecA splice inh	Mtb H37Rv	YopH PTP inh	Arbovirus anti	Mtb betalactam	others
COc1ccccc1NC(=O)CN1CCN(CC(=O)Nc2ccc(F)cc2)CC1	.	0%	-28	-1	-4
CN(C)CCCNC(=O)c1ccc2[nH]c3ccccc3c2c1	-0.8	-3%	-23	-17	0
CC(NC(=O)c1ccc2c(c1)S(=O)(=O)N=C1CCCCCN12)c1ccc(S(N)(=O)=O)cc1 (stereo not given)	-2.5	.	.	.	3
Cc1nc2ccccc2c(=O)n1NC(=O)c1ccc(Cl)c(Cl)c1	-1.8	.	.	.	1

The main list resumes; the 2 compounds before the break are reprinted first.
SMILES	RecA splice inh	Mtb H37Rv	YopH PTP inh	Arbovirus anti	Mtb betalactam	others
O=C(NCCCN1CCCC1=O)c1ccc2c(=O)n(Cc3ccco3)c(=S)[nH]c2c1	0.0	0%	-21	-4	11
CC(C)(C)C1CCc2c(sc3nc(SCC(N)=O)nc(N)c23)C1 (stereo not given)	2.8	25µM*	2	-38	99
Cc1ccc(NC(=O)CNc2cccc(S(=O)(=O)N3CCCC3)c2)cc1F	3.2	.	.	.	-5
Nc1ccc(CCS(N)(=O)=O)cc1	2.0	-5%	-41	6	0
CCOc1ccc(-n2c(-c3ccco3)nc3c(cnn3-c3ccc(C)cc3)c2=O)cc1	0.3	0%	.	.	-4
CCCCN(C)S(=O)(=O)c1ccc(C(=O)Nc2nnc(-c3cccs3)o2)cc1	5.3	?	-26	-18	94
Cc1nc([N+](=O)[O-])c(SCC(N)=O)n1Cc1ccccc1	2.4	-8%	.	-7	5
CCCc1[nH]nc2c1C(CCC)C(C#N)=C(N)O2 (stereo not given)	64*	-6%	-23	-4	-10
CC1CC(C)CN(S(=O)(=O)N2CCCC(C(=O)NCc3ccccc3Cl)C2)C1 (stereo not given)	-3.0	.	.	.	0
Cc1ccc(OCc2ccc([N+](=O)[O-])cc2)c([N+](=O)[O-])n1	1.8	.	.	.	6
O=C(NCC1CCOCC1)c1ccc(OC2CCN(Cc3ccccn3)CC2)cc1	-4.3	-1%	.	-2	3
O=C(Nc1nccs1)c1ccc(-c2ccccc2Cl)o1	.	?	-35	-5	99
CC1CCCN(C(=O)CSc2ncccn2)C1 (stereo not given)	-0.9	.	.	.	4
CC(C)c1ccc(OCC(=O)Nc2ccc3oc(=O)ccc3c2)cc1	18	.	.	.	74
CC1CCC2(CC1)NC(=O)c1ccccc1O2 (stereo not given)	1.0	-1%	-33	3	4
CC(C)(C)c1nnc(NC(=O)Cc2ccc(Br)cc2)s1	-1.9	-4%	-8	4	-2
O=C(N1CCOCC1)N1c2ccccc2Sc2ccccc21	-0.1	-10%	-19	-10	2
CCCCNC(=O)NS(=O)(=O)c1ccc(C)cc1	1.1	-8%	-43	11	3
CCS(=O)(=O)N1CCN(c2ncnc3sc(C)c(C)c23)CC1	-0.1	-6%	.	10	-2
COc1ccc(C)cc1NC(=O)COC(=O)c1ccc([N+](=O)[O-])o1	0.7	-1%	.	6	95
Cc1cc(N/N=C2/CCCc3ccccc32)nc2ccccc12	9.5	17%	.	-26	91
CN1CCN(C(=O)c2ccc(N(C)S(=O)(=O)c3cccs3)cc2)CC1	0.3	4%	.	-12	5
CC1CCCN(CCCNC(=O)c2nn(C)c3c2CSc2ccccc2-3)C1 (stereo not given)	-3.3	.	.	.	0
COC(=O)C(CCSC)NC(=O)c1cc2c(n(-c3ccc(C)cc3)c1=O)CCCC2=O (stereo not given)	-4.3	-3%	.	-3	3
CN(CC(=O)Nc1ccc(N2CCOCC2)cc1)C(=O)CCNC(=O)c1ccccc1Cl	-9.0	.	.	.	-14
CCOC(=O)C1CCN(CC(=O)c2c(C)[nH]c3cc(C)ccc23)CC1	0.5	-3%	-31	-5	5
Cc1c(C(=O)Nc2nnc(C3CC3)s2)oc2c(Cl)cccc12	-0.7	.	.	.	-6

New compounds follow:
SMILES	RecA splice inh	Mtb H37Rv	YopH PTP inh	Arbovirus anti	Mtb betalactam	others
CC(C)C(=O)Nc1nnc(Cc2ccccc2)s1	-1.7	3%	0	3	-17
CC(=O)/C(C#N)=C1\NC(=O)C(Cc2ccccc2C)S1 (stereo not given)	-0.2	-1%	.	.	0
Cc1ccc(NC(=O)c2cccc3c2-c2ccccc2C3=O)cc1C	-0.8	-6%	-15	-1	8
CCOc1ccc(C2NC(=O)c3sc(=S)n(-c4ccccc4)c3N2)cc1 (stereo not given)	-5.9	-2%	-19	2	-2
COc1ccccc1NC(=O)Cc1nnc(SCC(=O)NC2=NCCS2)n1C	5.0	.	.	.	-7
CCOc1ccc(C(=O)N2CCCN(C(=O)c3ccc(OCC)cc3)CC2)cc1	-1.6	-9%	-34	4	-7
CCn1cc(SCC(=O)NCc2ccc3c(c2)OCO3)c2ccccc21	0.2	5%	-31	2	-2	Arbovirus anti repeat=-7
Cc1cc(NS(=O)(=O)c2ccc(NC(=O)c3cc4ccccc4o3)cc2)nc(C)n1	1.4	12%	-26	7	63
COC(=O)CN1C(=O)N/C(=C/c2cc3c(cc2OC)OCO3)C1=O	-4.7	15%	.	15	1
CCOc1ccc(NC(=O)c2ccncc2)cc1	-1.6	0%	-12	6	-3
O=C(NC(=S)Nn1cnc2c(cnn2-c2ccccc2)c1=O)c1ccc(Oc2ccccc2)cc1	-5.0	-9%	-28	-7	-1
CCCCC(=O)N(CCOC)c1nnc(-c2cccnc2)s1	.	.	.	4	5
CCn1c(CN2CCOCC2)nnc1SCC(=O)Nc1ccccc1C	0.9	.	.	.	?
C=CCOc1c2ccc(C(=O)NCc3ccccc3OC)cc2nn1C	-2.2	-9%	-27	2	-8
CCOc1ccc(-n2c(=O)c3ccccc3c3ccccc3c2=O)cc1	22	-9%	.	.	9
COc1ccc(CNC(=O)COC(=O)/C=C/c2cccc(Br)c2)cc1	-1.3	7%	.	7	-3
COc1cc(/C=C/C(=O)c2ccc3c(c2)OCO3)cc(Cl)c1O	1.5	.	.	.	60
Cc1c(CC(=O)NCCCC(=O)O)c(=O)oc2cc3oc4c(c3cc12)CCCC4	-2.7	.	.	.	?
COc1ccc(-n2nc([N+](=O)[O-])c(=NCc3cccnc3)n2O)cc1	0.4	-4%	-36	-4	2
O=C(COc1ccc2ccccc2c1)NNC(=O)Nc1ccc(F)cc1F	-2.4	.	.	.	-8
CCOC(=O)C1=C(COC(=O)/C=C/c2ccc(SC)cc2)NC(=O)NC1C (stereo not given)	-0.7	.	.	.	-6
COc1ccc(Cc2nnc(SCC(=O)N(C)CC(=O)Nc3ccc(C)cc3)o2)cc1	2.8	.	.	.	2
O=C(NCc1cccnc1)c1cccc(-c2cc3ccccc3oc2=O)c1	2.0	5%	.	-12	3
Cc1ccn2c(CNCCn3cccn3)c(C(=O)N3CCCCCC3)nc2c1	-1.3	5%	.	-1	-5
Cc1[nH]c(=O)c(C#N)cc1-c1ccncc1	-2.1	-10%&-1%	.	-1	0

The list continues.
SMILES	RecA splice inh	Mtb H37Rv	YopH PTP inh	Arbovirus anti	Mtb betalactam	others
CC(C)(C)NC(=O)C(=O)NNC(=O)c1ccco1	-0.9	-2%	.	7	0
CC(=O)n1cc(Nc2ccccc2C(=O)O)c2ccccc21	2.5	-4%	-4	-2	5
Cn1c(=O)c([N+](=O)[O-])c(Cl)c2ccccc21	56*	0%	.	-34	.
COc1ccc(NC(=S)N(Cc2ccc(C(=O)O)cc2)Cc2ccc(OC)c(OC)c2)cc1	2.1	-6%	.	10	1
O=C(N/N=C/c1cccs1)c1ccccn1	-0.7	9%	-18	7	88
CC(=O)N1CCc2c(sc(NC(=O)Cc3ccc(F)cc3)c2C#N)C1	0.3	.	.	.	5
COc1ccc(C)cc1NC(=O)Nc1cccc(C(=O)O)c1	0.4	-2%	.	-1	-2
O=C(C1CCCC1)N1CCN=C1SCc1cccc([N+](=O)[O-])c1	7.5	3%	.	-11	-9
CCOc1cc(/C=C2\C(=O)N(c3cccc(C(F)(F)F)c3)C(=O)c3ccccc32)ccc1O	-5.3	0%	-18	5	-4
CC(C)(C)NC(=O)CSc1nc(O)cc(=O)n1-c1ccccc1F	-2.1	-7%	-7	1	0	Arbovirus anti repeat=2
O=C(CCNC(=O)c1ccco1)NCCc1ccc(Cl)cc1	3.7	.	.	.	2
Cc1csc(NC(=O)COCC(=O)O)c1-c1nc2ccccc2s1	-0.3	-4%	.	.	6
COc1ccc(C2=[N+]([O-])C(C)(C)N(O)C2C)cc1 (stereo not given)	-5.9	-12%	-19	-1	1
COc1cc(OC)cc(C(=O)N[C@H](C(=O)Nc2nc3ccc(S(C)(=O)=O)cc3s2)C(C)C)c1	1.9	2%	.	7	8
O=C(NC1CCCCC1)N(Cc1nc2ccccc2c(=O)[nH]1)C1CCCC1	-0.4	.	2	0	9
CN1C(=O)/C(=C/c2cn(CC(=O)NCc3ccco3)c3ccccc23)NC1=S	.	3%	.	6	-4
COc1ccc(/C=C/c2nc3ccccc3n2Cc2ccc(OC)c(OC)c2)cc1	11	7%	-19	-16	49
Cc1ccccc1CSc1nnc(CCCCCNC(=O)OC(C)(C)C)o1	-3.9	73%	.	.	86
Cc1nc(Cl)cc(N/N=C/c2ccc(O)cc2)n1	2.4	.	.	.	-1
O=C(NCCN1C(=O)S/C(=C\c2ccc(OC(F)F)cc2)C1=O)C1=COCCO1	5.1	.	.	.	1
O=C(CSc1nnnn1C1CCCCC1)Nc1ccccc1N1CCOCC1	-1.6	-2%	.	8	-3
O=C(CC12CC3CC(CC(C3)C1)C2)N1CCCC1	2.1	2%	1	6	1
Cc1ccc(CNC(=O)CN(C)S(=O)(=O)c2cccc3nsnc23)cc1	-8.2	-2%	-46	12	-13
Cc1c(N=C2C=C(Br)C(=O)C(Br)=C2)c(=O)n(-c2ccccc2)n1C	.	1%	.	-3	.
